Ecoli growth: blocks Escherichia coli growth | OD600, 23 h; stronger effect = lower value | 330,000 tested, 0.21% active | OD600 absorbance (concentration not given with the values);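 active means OD600 absorbance below the run mean of sample wells minus 3.6 SD, in any replicate, cut at about 0.56 in these data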;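 further: stock transfer was 300 nL into about 60 µL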
Vif TR-FRET: HIV-1 Vif–A3G interaction blockers – biochemical, TR-FRET, GST-Vif 1-94, biotin-A3G peptide, dose response retest, primary screen (AID 1117319); TR-FRET GST-Vif / biotin-A3G peptide binding; higher % means a stronger effect; test concentration not given here; strong numbers were not always called active; one-dose inhibition, %; IC50 in µM for titrated hits; 260,000 tested, 0.57% active;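 active means above the screen mean plus three standard deviations and confirmed in dose response; inconclusive means results disagree or hit not tested in dose response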;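 further: Vif residues 1-94 fused to GST binding biotinylated APOBEC3G peptide 110-148; 0% = full assay without inhibitor and 100% = GST in place of GST-Vif; retest series ran down from 100 µM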
ALR H2O2 inh: inhibitors of human sulfhydryl oxidase ALR; P55789; purified ALR, DTT oxidation, H2O2 HRP-luminol luminescence; inhibition, % (no concentration beside the values); 290,000 tested, 3.8% active; AID 485317;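 active means mean and each replicate at 75% or more; inconclusive means only one of the two met; inactive means neither met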;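 further: stock transfer was 7.5 nL into about 7.5 µL; 0% = neutral wells and 100% = wells with inactivated enzyme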
Target sequence (P55789 whole entry, looked up): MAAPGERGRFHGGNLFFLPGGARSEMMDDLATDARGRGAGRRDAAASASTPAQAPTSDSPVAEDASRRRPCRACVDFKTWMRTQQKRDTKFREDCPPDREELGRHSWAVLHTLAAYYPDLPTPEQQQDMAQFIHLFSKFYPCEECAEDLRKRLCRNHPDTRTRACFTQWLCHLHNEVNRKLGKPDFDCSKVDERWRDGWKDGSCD
MLL AF4-AF9 inh: blocks AF4 peptide binding to human AF9; P42568; AlphaScreen, biotin-AF4 peptide binding to FLAG-AF9; AID 651704; inhibition, % at 10 µM; 350,000 tested, 0.47% active;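 active means every replicate reaching a set inhibition limit, whatever the replicate mean, cut at about 25% in these data; inconclusive means mean inhibition reaches that limit but some replicates miss it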;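 further: 0% = plate neutral control median and 100% = total signal loss; the record names both 10 and 1 µM as test concentration; the first replicate is given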
Ecoli rRNA inh: selective bacterial rRNA inhibition in E. coli. GFP signal change (wild-type ribosome), % (test concentration not listed). AID 720706. 350,000 tested, 1.6% active. E. coli WT GFP vs humanized-ribosome RFP mutants, fluorescence, 24 h; stronger effect = lower value; DMSO median 0, no signal -100;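 active means significant combined selectivity score with lowered wild-type GFP, culture density cut under 30%, mutant RFP and density less affected; inactive means any of these conditions unmet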; further: one replicate is shown; some compounds called inactive have numbers as strong as hits
FGF22 binding: shifts melting point of recombinant human FGF22; Q9HCT0; recombinant FGF22 thermal shift, SYPRO orange fluorescence; percent of sucrose octasulfate shift, DMSO zero; calls only at 9.99 µM; 340,000 tested, 1.5% active; AID 651658;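 active means melting point raised past a set limit in the mean and every replicate; inconclusive means no clear call; three in four hits are not shown here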
Target sequence (Q9HCT0 whole entry, looked up): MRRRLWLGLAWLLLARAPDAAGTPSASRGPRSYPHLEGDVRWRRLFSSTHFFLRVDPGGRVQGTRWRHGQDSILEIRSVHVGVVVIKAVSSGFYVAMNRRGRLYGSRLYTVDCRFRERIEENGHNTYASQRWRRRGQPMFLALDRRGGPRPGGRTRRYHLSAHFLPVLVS
HNF4A DNA FP: change in binding of human HNF4 alpha to DNA. HNF4a-FITC DNA binding, fluorescence polarization, 1 h. activity change, % at 10 µM. 360,000 tested, 0.3% active; in the data active means activity change above about 30%, passing the limit was not always enough;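 further: controls were the assay level and a saturating level of protein; the project sought stronger binding though the title names inhibitors; some compounds called inactive have numbers as strong as hits; positive values seem to mean higher polarization but the record does not say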
Target sequence (P41235 whole entry, looked up): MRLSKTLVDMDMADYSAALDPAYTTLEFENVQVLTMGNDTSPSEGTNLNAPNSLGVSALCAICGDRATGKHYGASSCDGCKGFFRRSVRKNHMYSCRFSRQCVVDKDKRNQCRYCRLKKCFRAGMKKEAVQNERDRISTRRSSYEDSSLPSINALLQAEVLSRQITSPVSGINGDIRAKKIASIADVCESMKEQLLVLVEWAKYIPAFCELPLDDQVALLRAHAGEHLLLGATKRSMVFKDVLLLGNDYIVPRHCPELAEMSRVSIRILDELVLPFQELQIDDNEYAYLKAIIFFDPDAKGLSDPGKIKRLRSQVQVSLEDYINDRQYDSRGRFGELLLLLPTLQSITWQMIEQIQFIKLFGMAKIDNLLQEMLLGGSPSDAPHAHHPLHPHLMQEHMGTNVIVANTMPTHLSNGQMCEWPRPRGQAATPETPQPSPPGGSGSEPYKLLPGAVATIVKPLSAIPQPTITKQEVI
Ecoli rRNA inh OD600: also measured in Ecoli rRNA inh; calls as there; OD600 change, %; measured here: OD600 growth;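 optical density of the mix in the first replicate; 0 = DMSO median and -100 = no signal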
Ecoli rRNA inh RFP: also measured in Ecoli rRNA inh; calls as there; RFP signal change, %; measured here: RFP humanized mutant strains;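 first replicate; 0 = DMSO median and -100 = no signal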
An asterisk follows results filed as active; i = inactive; ? = inconclusive; . = not tested or not shown.

Screens in order – Ecoli growth	Vif TR-FRET	ALR H2O2 inh	MLL AF4-AF9 inh	Ecoli rRNA inh	Ecoli rRNA inh OD600	Ecoli rRNA inh RFP	FGF22 binding	HNF4A DNA FP
- Cc1ccc(O)c(C(CC(=O)NC2CCCCC2)c2ccccc2)c1 (stereo not drawn)
  0.69	4%	23	0.3	13	0	2.4	i	4.7
- COc1cccc(/C=N/NC(=O)c2ccc([N+](=O)[O-])cc2Cl)c1O
  .	30%	18	.	.	.	.	.	2.3
- C/C=C/c1ccc([C@H]2[C@H]3CN(CCC(F)(F)F)CCCCN3[C@H]2CO)cc1
  .	.	.	5.5	-1	-6	3.0	i	.
- Nc1nnc(CSc2ccc(Cl)cc2)s1
  0.7	23%	-3	.	.	.	.	.	0.3
- O=S(=O)(Nc1ccc(-c2ccc3nncn3n2)cc1)c1cccs1
  0.61	6%	-21	-0.8	7	5	-1.8	i	2.4
- C=CCn1c(NCc2ccccc2O)nc2ccccc21
  0.6	.	50	1.5	-20	-23	-1.1	i	-2.5
- O=C(Nc1ccc2c(c1)OCCO2)C1CCN(S(=O)(=O)c2ccccc2)CC1
  0.69	2%	-5	-0.7	-17	-22	-3.3	i	-6.9
- C[C@@H]1CCCCO[C@H](CN(C)C(=O)c2ccncc2)[C@@H](C)CN([C@H](C)CO)C(=O)c2cc(NS(=O)(=O)c3cn(C)cn3)ccc2O1
  .	.	.	-1.9	5	8	3.3	i	.
- C[C@H]1CN([C@@H](C)CO)C(=O)Cc2cc(NC(=O)C3CCCCC3)ccc2O[C@@H]1CN(C)C
  .	.	.	-5.3	0	13	-2.8	i	.
- O=C(N/N=C/c1ccccc1C(F)(F)F)c1ccc(O)cc1
  .	-6%	-5	3.4	-29*	-19*	4.5*	i	-1.4
- CCN(CC)S(=O)(=O)c1cccc(-c2nnc(SC(C)C(=O)NCCC3=CCCCC3)o2)c1 (stereo not drawn)
  0.72	13%	-2	.	.	.	.	.	-1.9
- C[C@@H]1CN([C@H](C)CO)C(=O)c2cc(NC(=O)C3CCCCC3)ccc2O[C@@H](C)CCCCO[C@H]1CN(C)C(=O)c1ccccc1
  .	.	.	-1.6	-1	-9	-1.6	i	.
- CO[C@H]1CN(C)C(=O)c2ccc(NC(=O)c3cccc(F)c3)cc2OC[C@@H](C)N(C)C[C@@H]1C
  .	.	.	-5.6	-1	-2	-1.9	i	.
- Cc1cccc(N2CCN(C(=O)c3ccncc3)CC2)c1C
  0.72	74%	6	.	.	.	.	.	-3.0
- CS(=O)(=O)N(CC(=O)NC1CCCCC1)c1cccc(Cl)c1
  0.7	3%	-1	.	.	.	.	.	-3.4
- COc1ccc2[nH]c(C(=O)O)c(CCNC(=O)/C=C/c3ccc(O)c(OC)c3)c2c1
  0.7	3%	74	-2.4	2	-2	1.3	i	-2.6
- CN1CCN(C(=O)C[C@H]2CC[C@@H]3[C@H](COc4ccc(NC(=O)c5ccc(F)c(F)c5)cc4C(=O)N3C)O2)CC1
  .	.	.	-0.7	1	5	-1.1	i	.
- CN(C)C(CNC(=O)c1cccc(NS(=O)(=O)c2ccc(Br)cc2)c1)c1ccco1 (stereo not drawn)
  0.64	-4%	-5	?	-5	-5	1.6	i	1.2
- CC(C)CC#Cc1cnc2c(c1)C(=O)N([C@H](C)CO)C[C@H](C)[C@@H](CN(C)Cc1ccc(C(=O)O)cc1)O2
  .	.	.	-3.4	4	1	3.1	i	.
- CCOC(=O)CC1COc2ccccc2N1C(=O)c1ccc(C)cc1 (stereo not drawn)
  0.68	79%	-6	.	.	.	.	.	0.9
- Cc1c(C(=O)N/N=C/c2ccc(O)cc2)sc(=S)n1C
  .	?	45	.	.	.	.	.	3.5
- Cc1ccc(NC(=O)c2ccc3nc[nH]c3c2)cc1C
  0.69	.	12	-6.0	-4	0	-0.9	i	0.3
- O=C(CN1CCN(Cc2ccccc2)CC1)N/N=C/C=C/c1ccccc1[N+](=O)[O-]
  .	.	-9	4.1	14	17	-1.2	i	4.4
- COc1ccc(NC(=O)c2sc3nc(N4CCOCC4)c4c(c3c2N)CCCC4)c(OC)c1
  0.66	.	-2	-0.7	19	10	2.5	i	1.5
- COc1ccc(NC(=O)CSC2=C(C#N)C(c3ccco3)C(C(=O)Nc3nc4ccccc4s3)=C(C)N2)cc1 (stereo not drawn)
  0.76	.	1	.	.	.	.	.	15
- N#CC1=C(N)OC2=C(C(=O)CCC2)C1C1C=CCCC1 (stereo not drawn)
  0.83	?	4	.	.	.	.	.	-2.0
- CS(=O)(=O)Nc1ccc2c(c1)[C@H]1C[C@@H](CC(=O)NCc3ccccc3)O[C@@H](CO)[C@H]1O2
  .	.	.	-0.4	1	1	0.0	i	.
- COc1ccc(-c2noc(C(C)NS(=O)(=O)c3ccc(NC(C)=O)cc3)n2)cc1 (stereo not drawn)
  0.72	.	-3	-4.5	-8	-8	2.2	i	3.5
- COc1ccc(CN(C)C[C@H]2Oc3ccc(NS(=O)(=O)c4ccc(OC)cc4)cc3CC(=O)N([C@@H](C)CO)C[C@@H]2C)cc1
  .	.	.	4.1	-2	-11	4.7	i	.
- Cc1ccc(S(=O)(=O)N2CCN(CC(=O)N3CCOCC3)CC2)cc1
  0.74	-4%	-6	1.5	4	0	-1.8	i	-0.7
- O=C(COC(=O)C12CC3CC(CC(Cl)(C3)C1)C2)N1CCCCC1
  0.67	0%	-4	-0.7	1	-22	-4.7	i	0.1
- CC(C)(C)OC(=O)NCCCCCc1cn(CC(=O)NCCCCCCCCCCC(=O)N2CCN(C(=O)OC(C)(C)C)CC2)nn1
  0.72	.	-4	-6.4	15	12	2.8	i	2.3
- N#Cc1ccccc1NC(=S)NC(=O)c1cccnc1
  0.67	.	95*	-13	11	16	0.7	i	1.6
- Cc1ccc(-c2nnc(NC(=O)Cc3ccc(F)cc3)o2)c(C)c1
  0.69	-57%	-10	.	.	.	.	.	-0.4
- CCOc1ccccc1NC(=O)Cn1nnc(C(=O)NCc2ccc3c(c2)OCO3)c1N
  0.76	-3%	3	-1.7	6	7	-1.2	i	-0.9
- CC(C)CCN1CC(O)=C(c2nc3ccccc3[nH]2)C1=N
  0.68	6%	1	.	.	.	.	.	5.4
- O=C(N[C@@H]1CC[C@@H](CC(=O)N2CCc3ccccc3C2)O[C@H]1CO)C1CC1
  .	.	.	-7.9	-3	-3	-0.4	i	.
- CCc1noc(C)c1C(=O)NNC(=O)COc1ccc(Br)cc1
  .	.	-2	-1.0	-7	2	-2.1	i	2.3
- Cn1nc(-c2ccc(C(=O)NC3CCCCC3)cc2)c2ccccc2c1=O
  0.67	.	7	-2.5	-1	3	0.8	i	-1.9
- O=C(C[C@@H]1CC[C@H]2[C@@H](COC[C@H](O)CN2Cc2nccs2)O1)NCc1ccc(F)cc1
  .	.	.	-4.0	0	-3	-3.9	i	.
- CCc1nc(SCc2ccc([N+](=O)[O-])cc2)n[nH]1
  0.7	1%	0	2.5	8	1	3.7	i	-3.0
- FC(F)(F)c1ccc(-n2cnc3ccccc32)nc1
  0.65	?	-6	-2.5	-4	-1	-0.4	i	2.4
- O=C(N/N=C/c1ccccn1)c1c[nH]c2ccccc12
  .	.	-4	6.4	-2	4	2.2	i	0.4
- Cc1nn(C)cc1/C=N\NC(=O)c1ccc(Cn2cc(Cl)cn2)cc1
  .	-3%	0	0.7	-3	-1	3.1	i	2.4
- Cc1ccccc1OCC(=O)NCC(c1cccs1)N1CCOCC1 (stereo not drawn)
  0.63	-3%	-4	-1.9	0	-4	1.8	i	-0.4
- C[C@@H]1CN([C@@H](C)CO)C(=O)c2cc(NC(=O)Cc3ccccc3)ccc2O[C@H]1CN(C)Cc1ccccc1
  .	.	.	-3.7	3	15	-1.2	i	.
- Brc1ccc(Oc2ncc(CN3CCN(c4ccccc4)CC3)s2)cc1
  0.72	16%	2	.	.	.	.	.	2.4
- COc1ccccc1/C=N/NC(=O)CC(=O)NC1CCCCC1
  .	.	-11	-1.2	10	15	0.4	i	-4.2
- CC(=O)N1CCN(Cc2nc3cc(NC(=O)c4cccs4)ccc3n2C)CC1
  0.67	.	.	0.9	0	3	-3.3	.	-1.9
- CCOc1ccc(CN2CCN(Cc3cnc(N4CCOCC4)s3)CC2CCO)cc1 (stereo not drawn)
  0.72	.	-5	-2.5	14	5	0.4	i	-1.5
- CC(C)NC(=O)N(C)C[C@H]1Oc2ccc(NS(=O)(=O)c3ccc(Cl)cc3)cc2CC(=O)N([C@H](C)CO)C[C@H]1C
  .	.	.	-3.4	4	-1	-0.7	i	.
- c1ccc(CSc2nnc(Cc3ccccc3)o2)cc1
  0.7	-1%	.	-2.7	-31*	-16*	-7.5*	i	-1.6
- Clc1ccc(-c2nn3cnnc3s2)c(Cl)c1
  0.68	2%	-2	.	.	.	.	.	0.2
- CSc1cccc(NC(=O)C(C)NS(=O)(=O)c2ccc(F)cc2)c1 (stereo not drawn)
  0.65	1%	-5	.	.	.	.	.	0.0
- CCCc1c(C)nc2ccc(OC)cc2c1SCCC(=O)O
  0.68	.	1	.	.	.	.	.	-0.6
- CCC(C)(C)NC(=O)/C=C/c1cnc2ccccc2n1
  0.66	6%	5	1.7	-7	-3	0.5	i	-0.9
- CCC(=O)Nc1ccc(S(=O)(=O)NC[C@H]2O[C@@H](n3cnc4c(=O)[nH]c(N)nc43)[C@H](O)[C@@H]2O)cc1
  .	.	.	-1.2	7	10	3.0	i	-0.7
- c1cncc(CNc2ncnc3sc4c(c23)CCC4)c1
  0.71	6%	-28	-0.7	-4	-17	-4.5	i	0.0
- O=C(CSc1nnc(-c2cccnc2)n1Cc1ccco1)c1ccc2ccccc2c1
  0.7	11%	-12	.	.	.	.	.	3.8
- Cc1ccc(C)c(OCCC(=O)OCC(=O)NC2CCCC2)c1
  0.69	1%	-3	-3.2	-2	-6	-1.7	i	0.1

The list goes on:
Screens in order – Ecoli growth	Vif TR-FRET	ALR H2O2 inh	MLL AF4-AF9 inh	Ecoli rRNA inh	Ecoli rRNA inh OD600	Ecoli rRNA inh RFP	FGF22 binding	HNF4A DNA FP
- CC1=C(C(=O)N2CCOCC2)CC(CC(=O)NCCN2CCOCC2)C(=O)N1Cc1ccc(C(C)(C)C)cc1 (stereo not drawn)
  .	4%	.	2.9	6	4	-4.1	i	0.6
- CCCCN(C)CCNC(=O)CCn1nc(-c2ccc(C)cc2)ccc1=O
  0.65	1%	-5	0.0	7	13	-0.7	i	-2.0
- COc1ccc(OC)c(NC(=O)c2nnn(CC(=O)Nc3ccc4c(c3)OCO4)c2N)c1
  0.72	.	-9	.	.	.	.	.	-6.3
- O=C(CCCCC(=O)NNC(=O)COc1ccccc1)NNC(=O)COc1ccccc1
  .	.	1	-1.1	12	12	0.3	i	-2.8
- CC(C)CC(C(=O)O)N1C(=O)[C@@H]2[C@H](C1=O)[C@@H]1C[C@H]2C(Br)C1Br (stereo partly drawn)
  0.67	7%	3	-8.3	-15	-8	-11	i	0.7
- COC(=O)c1ccc(Nc2cc(C)nc3nc(C)nn23)cc1
  0.7	23%	-8	0.8	-5	-2	-2.2	i	0.8
- O=C(Nc1ccc(NC(=O)C2CC2)nc1)c1ccncc1
  0.68	20%	-8	.	0	13	-1.0	.	3.8

Some values from the results shown.
Value for O=C(CN1CCN(Cc2ccccc2)CC1)N/N=C/C=C/c1ccccc1[N+](=O)[O-] under Ecoli rRNA inh OD600: 17
Value for CCc1nc(SCc2ccc([N+](=O)[O-])cc2)n[nH]1 under HNF4A DNA FP: -3.0

Assay outcomes: PubChem, several laboratories

This is a subset. The share of hits here may be higher or lower than overall.
